# PKD1 inh: inhibitors of human PKD1 kinase, biochemical, fluorescence polarization; Serine/threonine-protein kinase D1 (Homo sapiens), Q15139; inhibition, %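 (about 10 µM by stock and volumes)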; PKD1 kinase fluorescence polarization assay; hit rate 0.056% among 200,000;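 active = inhibition of 50% or more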;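 also: controls were vehicle for no effect and a reference inhibitor for full effect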
# Target sequence (Q15139 whole entry, looked up): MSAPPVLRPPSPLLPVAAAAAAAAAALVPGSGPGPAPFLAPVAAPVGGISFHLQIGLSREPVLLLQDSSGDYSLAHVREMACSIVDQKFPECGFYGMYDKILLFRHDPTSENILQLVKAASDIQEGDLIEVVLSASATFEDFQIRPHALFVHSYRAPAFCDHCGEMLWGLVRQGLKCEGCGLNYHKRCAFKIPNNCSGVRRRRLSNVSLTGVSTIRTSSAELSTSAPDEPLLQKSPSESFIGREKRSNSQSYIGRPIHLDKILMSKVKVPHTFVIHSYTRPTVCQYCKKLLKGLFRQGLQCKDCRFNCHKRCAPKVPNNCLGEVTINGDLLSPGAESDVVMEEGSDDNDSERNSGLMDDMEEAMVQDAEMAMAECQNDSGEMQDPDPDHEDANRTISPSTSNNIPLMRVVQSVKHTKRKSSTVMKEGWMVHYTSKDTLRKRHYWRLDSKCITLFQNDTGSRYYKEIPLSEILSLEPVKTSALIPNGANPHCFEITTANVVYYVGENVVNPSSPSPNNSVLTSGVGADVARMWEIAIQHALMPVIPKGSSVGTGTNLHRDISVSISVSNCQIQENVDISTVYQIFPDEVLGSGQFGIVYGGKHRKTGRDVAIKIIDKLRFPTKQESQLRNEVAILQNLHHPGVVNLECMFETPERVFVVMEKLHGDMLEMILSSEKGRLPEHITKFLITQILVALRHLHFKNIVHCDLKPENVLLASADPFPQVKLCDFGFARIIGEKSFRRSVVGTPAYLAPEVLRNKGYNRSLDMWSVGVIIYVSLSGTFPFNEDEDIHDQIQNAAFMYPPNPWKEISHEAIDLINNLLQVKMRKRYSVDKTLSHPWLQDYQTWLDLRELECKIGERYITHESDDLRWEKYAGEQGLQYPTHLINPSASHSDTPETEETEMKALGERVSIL
# RGS16-Gao HTS: modulators of RGS16 binding to Galphao, primary screen, biochemical, human proteins, multiplexed bead flow cytometry; Regulator of G-protein signaling 16 (Homo sapiens) + Guanine nucleotide-binding protein …; bead-based flow cytometry RGS16-Galphao binding, fluorescence; actives lie on both sides; binding response (% of control), % at 10 µM; hit rate 0.38% among 220,000;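 active = below 25% or above 175%, edge rows of some plates excepted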;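 also: Galphao activated by GDP with aluminum fluoride before binding; 100% = wells without compound and 0% = beads without RGS; some results beyond the cut were filed as inactive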
# GALR2 agonist: GALR2 receptor agonists, primary screen, cell-based; GALR2-expressing cells, agonist activation read-out; AID 803, 2007; activation, %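 (tested at 5 µM)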; hit rate 0.48% among 140,000; Galanin receptor type 2 (Homo sapiens), O43603;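 active = above mean plus 3 SD of all compounds, about 5% in these data, not always enough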;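 also: 0% = vehicle buffer wells and 100% = reference agonist at full effect; tested in CHO reporter cells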
# HSV augment: enhancers of HSV replication in host cells, fold increase, host cell viability. HSV replication augmentation in cells. maximum fold increase. hit rate 0.005% among 220,000. AID 1956, 2009;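 active = peak rise of 1.5-fold or more in the series; inconclusive = self-fluorescent or not available for retest; tested in PC3 cells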;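 also: first round at 10 µM; read as green reporter fluorescence; hits show the peak of a series up to 25 µM; 1 = signal of infected wells without compound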
# Insulin prom inh: inhibitors of insulin promoter-driven GFP, primary screen, imaging, TRM-6 cells (human fetal islet line), eGFP reporter, cell count | reporter expression induced with tamoxifen | inhibition, % at 2 µM | hit rate 0.9% among 130,000 | AID 1273, 2008;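 active = inhibition above the mean plus 3 SD, with well images judged a real hit on visual review, cut at about 60% in these data, passing the limit was not always enough; inconclusive = inhibition over the cutoff but images rejected on review; inactive = inhibition not above the cutoff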
# Insulin prom inh cell count: recorded beside Insulin prom inh, whose call it bears; normalized cell count, %; measured here: cell count, toxicity; reference of the scale not given here;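 cells exposed to compound for 48 h; stained nuclei by imaging scaled within each plate; lower means fewer cells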
# HSV augment primary fold: recorded beside HSV augment, whose call it bears; fold increase; compound at 10 µM; measured here: primary screen fold increase 10 uM; tested in PC3 cells;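 GFP signal in the first replicate; 1 = infected wells without compound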
# Numbers without * were called inactive; i = inactive; ? = inconclusive; / = no result given.
SMILES | RGS16-Gao HTS | HSV augment primary fold | HSV augment | Insulin prom inh | PKD1 inh | GALR2 agonist | Insulin prom inh cell count
CCCOC(=O)CSC1=C(C#N)C(c2ccccc2OCC)C(C#N)C(=O)N1 (centres undefined) | 100 | / | ? | -60 | -24 | 0.9 | 83
CCOC(=O)Cn1cnc2c(nnn2Cc2ccc(Cl)cc2)c1=O | 108 | 1 | i | / | 3 | -2.1 | /
COc1ccc(S(=O)(=O)N2c3ccccc3OCC2c2ccccc2)cc1 (centres undefined) | 102 | 0.56 | i | / | -11 | -2.3 | /
Nc1ccc(/C=C/C(=O)c2ccco2)cc1 | 89 | 0.96 | i | -5 | -8 | 0.4 | 108
CCOC(=O)c1c(C)[nH]c(C(=O)COC(=O)C(C)Oc2ccc(Cl)cc2Cl)c1C (centres undefined) | 100 | 0.88 | i | -19 | -6 | -2.2 | 149
COc1cccc(/C=N/NC(=S)Nc2cccc(C(=O)O)c2)c1O | 100 | / | ? | 36 | 8 | / | 55
CNC(=O)/C(C#N)=C/c1cn(CC(=O)NCc2ccco2)c2ccccc12 | 111 | 0.75 | i | / | -4 | / | /
COc1ccc(C2CC(c3ccccc3)=NN2C(=O)COC(=O)c2ccc(Cl)nc2)cc1 (centres undefined) | 97 | 0.95 | i | / | 3 | 0.3 | /
CCC1(CC)NC(=O)NC1=O | 103 | 1.1 | i | 91* | -9 | -1.7 | 103*
COC(=O)[C@H](C)NC(=O)Nc1ccc(OC)cc1OC | 105 | 0.99 | i | / | -13 | 2.3 | /
COC(=O)c1cc(NC(=O)c2ccc([N+](=O)[O-])cc2)c(=O)oc1C | 106 | 0.91 | i | / | -9 | / | /
CN1CCN(C(=O)CC23CC4CC(CC(C4)C2)C3)CC1 | 101 | 1 | i | 30 | 1 | -1.1 | 83
Cc1cccc(Cn2cnc3c(nnn3Cc3ccc(F)cc3)c2=O)c1 | 105 | 1.1 | i | -43 | -4 | 0.2 | 79
CCOC(=O)c1[nH]c(C)c(C(=O)NC(C)CC)c1C (centres undefined) | 100 | 0.96 | i | / | -7 | -2.3 | /
CC(Oc1ccc(-c2ccccc2)cc1)C(=O)N1CCOCC1 (centres undefined) | 124 | 0.89 | i | -50 | 1 | -1.1 | 102
Cc1cccc(C)c1NC(=O)CN(C)CC(=O)Nc1ccc(F)c(Cl)c1 | 101 | 0.86 | i | 50 | -3 | / | 100
Cn1cccc1-c1nc2ccccc2n1C | 102 | / | / | -300 | 0 | / | 76
ONc1cccnc1-n1nc(C(F)(F)F)cc1C(F)(F)F | 117 | 1.1 | i | / | 10 | / | /
CCN(C(=O)CSc1nc(-c2ccccc2)c(-c2ccccc2)[nH]1)C1CCS(=O)(=O)C1 (centres undefined) | 98 | 0.99 | i | -56 | -1 | -4.2 | 45
CCc1ccc(NC(=O)CN(c2cccc(C)c2)S(C)(=O)=O)cc1 | 123 | 1.1 | i | / | 0 | -0.4 | /
Brc1ccc(CSc2nnc(-c3cnccn3)n2Cc2ccco2)cc1 | 99 | / | / | / | -7 | -1.7 | /
N#Cc1c(C(F)(F)F)cc(-c2ccccc2)nc1SCC(=O)N1CCOCC1 | 99 | 0.89 | i | 23 | -12 | -2.7 | 99
CCC(=O)Nc1sccc1C(=O)OC | 72 | 0.9 | i | -42 | -2 | -0.8 | 117
Nc1nc(NCC2CCCO2)nc(NCC2CCCO2)c1[N+](=O)[O-] (centres undefined) | 98 | 0.99 | i | / | 4 | -1.7 | /
COC(=O)c1ccc(C23CC4(C2)[C@H](CN(C)[C@@H]4c2ccccc2)C3c2ccc(C(F)(F)F)cc2)cc1 (some centres undefined) | 100 | 0.82 | i | / | / | / | /
COc1ccc(/C=C/C(=O)NCCc2ccc(S(N)(=O)=O)cc2)cc1 | 104 | 1.1 | i | -8 | 5 | -1.6 | 161
COc1ccc(-n2c(SCC(=O)NNC(=O)c3ccc(C)cc3)nnc2-c2ccncc2)cc1 | 156 | 1.1 | i | / | 7 | -1.2 | /
O=C(Nc1ccc(N2CCOCC2)nc1)c1ccc(C(F)(F)F)cc1 | 106 | 0.96 | i | -236 | -9 | / | 92
COC(=O)c1[nH]c2cccc(C)c2c1NC(=O)CN1CCN(C(=O)c2ccco2)CC1 | 103 | 0.91 | i | 52 | -2 | -1.0 | 114
Cc1ccc(OCC(=O)Nc2ccc(N(C)C)cc2)cc1 | 103 | 1 | i | -23 | -10 | -2.2 | 84
CN(C)c1ccc(-c2n(C)c3ccccc3[n+]2C)cc1 | 27 | 0.89 | i | / | 2 | -2.3 | /
COc1ccccc1NC(=S)N(Cc1ccco1)Cc1cc2cc(C)c(C)cc2[nH]c1=O | 100 | / | / | -192 | 7 | 0.0 | 11
c1ccc(-c2nccc(-c3ccc(-n4cnc5ccccc54)cc3)n2)nc1 | 97 | 0.89 | i | -30 | -5 | -0.9 | 104
COc1ccc(NC(=O)CC2(CC(=O)O)CCCC2)cn1 | 100 | 0.58 | i | / | -2 | / | /
COc1cc(/C=N/NC(=O)C(C)Nc2n[nH]c(=O)[nH]c2=O)cc(OC)c1O (centres undefined) | 100 | 1 | i | / | -9 | -0.2 | /
O=c1nc(N2CCOCC2)ccn1Cc1ccc(Br)cc1 | 108 | 0.62 | i | 7 | -5 | -3.8 | 108
CC(Sc1n[nH]c(N)n1)C(=O)Nc1cccc(S(=O)(=O)N2CCOCC2)c1 (centres undefined) | 102 | 0.85 | i | / | 0 | / | /
COc1ccc(NC(=O)C2CCCN(S(=O)(=O)c3cccc4nonc34)C2)cc1 (centres undefined) | 107 | 0.88 | i | -27 | -7 | -1.4 | 80
CCCCN1C(=O)/C(=C/C=C2/C=Cc3ccccc3N2CC)SC1=S | 84 | 1 | i | / | -7 | / | /
COc1ccc(N2CCN(C(=O)Cn3c(=O)[nH]c4ccsc4c3=O)CC2)cc1 | 100 | 0.92 | i | / | -6 | -0.4 | /
CCOC(=O)COn1c(=O)c(C)[n+]([O-])c2ccccc21 | 108 | 1 | i | -11 | -6 | 31* | 182
COC(=O)c1ccc(COC(=O)CCc2nc(-c3ccccc3)c(-c3ccccc3)o2)cc1 | 100 | 0.83 | i | 20 | -2 | -3.5 | 75
COc1ccccc1NC(=O)C/C(C)=N/NC(=O)C12CC3CC(CC(C3)C1)C2 | 105 | 1 | i | / | -7 | / | /
CCCCC[n+]1cccc2c3ccccc3ccc21 | 107 | 0.88 | i | -33 | -2 | / | 46
c1cc(-c2nnc3n2CCC3)[nH]n1 | 108 | 1.1 | i | / | -5 | -2.4 | /
Cc1ccc(S(=O)(=O)N2CCCCC2)cc1C(=O)c1nccn1C | 104 | 1.1 | i | / | 2 | -2.3 | /
O=[N+]([O-])c1ccc(N/N=C\c2cccnc2)nc1 | 113 | 1 | i | / | 2 | / | /
Cc1ccnc(NS(=O)(=O)c2ccc(NC(=O)COc3ccccc3)cc2)n1 | 102 | 1 | i | -33 | -2 | / | 155
Cc1ccc(CNC(=O)Cc2ccc(-n3c(=O)[nH]c4ccsc4c3=O)cc2)cc1 | 100 | 0.6 | i | 20 | 8 | -1.2 | 96
Cc1cccc2sc(NC(=O)CN(C)S(=O)(=O)c3cccs3)nc12 | 85 | 0.99 | i | 31 | -6 | -3.6 | 107
Cc1ccccc1C(=O)N/N=C1/SCC(=O)N1Cc1ccccc1 | 104 | 0.94 | i | / | 0 | / | /
Nc1cc(=O)[nH]c(N2CCN(c3ccccc3)CC2)n1 | 100 | 0.95 | i | / | 3 | / | /
Cn1c(=O)c2c(O)c(Cc3ccccc3)c(=O)n(C)c2n(C)c1=O | 98 | 0.82 | i | / | / | / | /
S=C1NCCNC(=S)NCCOCCOCCN1 | 101 | 0.9 | i | 0 | -9 | / | 134
COc1ccc(/C(C)=N/NC(=O)OC(C)(C)C)cc1[N+](=O)[O-] | 85 | 0.76 | i | / | / | / | /
O=C(CCc1nc2ccccc2[nH]1)Nc1ccccc1F | 94 | 0.76 | i | / | 3 | / | /

# Additional compounds.
SMILES | RGS16-Gao HTS | HSV augment primary fold | HSV augment | Insulin prom inh | PKD1 inh | GALR2 agonist | Insulin prom inh cell count
CC(C)Oc1cccc(C(=O)C2CCCN(Cc3cnn(C(C)C)c3)C2)c1 (centres undefined) | 99 | 0.96 | i | / | 0 | / | /
COc1ccc(NC(C)C(=O)N/N=C/c2ccccc2OCc2cccc(Br)c2)cc1 (centres undefined) | 107 | 0.65 | i | -13 | -4 | -1.2 | 77
COc1ccc(S(=O)(=O)N(CC(=O)NC(C)C)Cc2ccccc2)cc1 | 103 | 0.97 | i | -63 | 6 | -1.7 | 95
c1ccc(-c2noc(-c3ccncc3)n2)nc1 | 104 | 1.1 | i | -61 | 6 | -1.5 | 109
COc1ccc2c(-c3ccccc3)cc(SCC(=O)N(C)C3CCS(=O)(=O)C3)nc2c1 (centres undefined) | 105 | 0.99 | i | -20 | -5 | 0.5 | 96
CCCC1(C(=O)OC)NC(c2ccco2)C2C(=O)N(c3ccc(C)cc3)C(=O)C21 (centres undefined) | 100 | 1.1 | i | / | 12 | -2.8 | /
CCOC(=O)c1ccc(N(C(=O)c2cnccn2)C(C(=O)NC2CCCCC2)c2cn(C)nc2C)cc1 (centres undefined) | 77 | 0.66 | i | 17 | -16 | -2.3 | 94
COc1ccccc1-n1c(C)cc(C=O)c1C | 97 | 0.9 | i | 7 | -7 | 0.4 | 138
CCNc1nc(NCC)n2c(SC(C(=O)Nc3cc(Cl)cc(Cl)c3)c3ccccc3)nnc2n1 (centres undefined) | 104 | 0.62 | i | 3 | 5 | -0.8 | 115
O=C1CC(Sc2ncccc2C(=O)O)C(=O)N1 (centres undefined) | 99 | 1 | i | / | 1 | / | /
Cc1ccccc1/C=N/n1c(-c2cc(-c3ccccc3)n[nH]2)n[nH]c1=S | 30 | 0.94 | i | / | / | / | /
Cc1nc2c(ccc3nc(NC(=O)c4ccc5c(c4)OCCO5)sc32)s1 | 124 | 0.61 | i | 0 | 8 | -0.4 | 111
Cc1cc[n+](-c2[nH]c(=O)sc2/C=N/NC([S-])=Nc2ccccc2)cc1C | 79 | / | ? | 13 | 14 | -1.1 | 70
Brc1ccc(-c2nc(-c3cccnc3)no2)o1 | 110 | 0.95 | i | -45 | -1 | -1.9 | 110
CC1=C(C)CC(C(=O)NNC(=O)c2csc(C)c2C)C(C(=O)O)C1 (centres undefined) | 111 | 0.93 | i | -13 | 5 | -0.5 | 84
CC(=O)c1ccc(-c2ccc(Cn3c(C)nc4cc(N)c(C)nc43)cc2)cc1 | 102 | 0.97 | i | -33 | 9 | / | 84
O=C(COc1ccccc1)N1CCN(C(=O)c2ccc([N+](=O)[O-])cc2)CC1 | 97 | 0.89 | i | 26 | -7 | / | 133
COc1ccc(C2(c3ccc(OC(C)=O)cc3OC(C)=O)CC(c3ccccc3)NC(=S)N2)cc1 (centres undefined) | 96 | 1 | i | -20 | 9 | / | 65
O=C(CSc1nnc(SCc2ccccc2Cl)s1)N/N=C/c1ccc(C(=O)O)cc1 | 95 | 1 | i | / | / | / | /
Cc1ccc2[nH]c3c(c2c1)CN(C(=O)CN1CCCc2ccccc21)CC3 | 88 | 1.1 | i | -26 | 7 | -1.0 | 125

# In the list so far, 9 have two or more sulfur atoms:
SMILES | RGS16-Gao HTS | HSV augment primary fold | HSV augment | Insulin prom inh | PKD1 inh | GALR2 agonist | Insulin prom inh cell count
CCN(C(=O)CSc1nc(-c2ccccc2)c(-c2ccccc2)[nH]1)C1CCS(=O)(=O)C1 (centres undefined) | 98 | 0.99 | i | -56 | -1 | -4.2 | 45
CC(Sc1n[nH]c(N)n1)C(=O)Nc1cccc(S(=O)(=O)N2CCOCC2)c1 (centres undefined) | 102 | 0.85 | i | / | 0 | / | /
CCCCN1C(=O)/C(=C/C=C2/C=Cc3ccccc3N2CC)SC1=S | 84 | 1 | i | / | -7 | / | /
Cc1cccc2sc(NC(=O)CN(C)S(=O)(=O)c3cccs3)nc12 | 85 | 0.99 | i | 31 | -6 | -3.6 | 107
S=C1NCCNC(=S)NCCOCCOCCN1 | 101 | 0.9 | i | 0 | -9 | / | 134
COc1ccc2c(-c3ccccc3)cc(SCC(=O)N(C)C3CCS(=O)(=O)C3)nc2c1 (centres undefined) | 105 | 0.99 | i | -20 | -5 | 0.5 | 96
Cc1nc2c(ccc3nc(NC(=O)c4ccc5c(c4)OCCO5)sc32)s1 | 124 | 0.61 | i | 0 | 8 | -0.4 | 111
Cc1cc[n+](-c2[nH]c(=O)sc2/C=N/NC([S-])=Nc2ccccc2)cc1C | 79 | / | ? | 13 | 14 | -1.1 | 70
O=C(CSc1nnc(SCc2ccccc2Cl)s1)N/N=C/c1ccc(C(=O)O)cc1 | 95 | 1 | i | / | / | / | /

# Compounds were not picked by outcome; 1.3% or so of the library scored in one or more.
